TRPML1 inh: qHTS for Inhibitors of the Human Mucolipin Transient Receptor Potential 1 (TRPML1). Mucolipin-1 (Homo sapiens), Q9GZU1. 390,000 compounds, 0.02% hits. activity change, negative = inhibition, % (concentration not given with the values). TRPML1-inducible cells, Ca2+ dye fluorescence, FDSS; hits give low values; inhibition of EC80 agonist-evoked calcium signal; in the data active means activity change below about -50%; inconclusive means about -30% to -50%; inactive means above about -30%;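 note: stimulus is agonist 54-4 at its EC80 concentration; % is set by controls: 0 for no effect and ±100 for the full control effect; the text of the record puts the active cut at -80%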
Target sequence (Q9GZU1 whole entry, looked up): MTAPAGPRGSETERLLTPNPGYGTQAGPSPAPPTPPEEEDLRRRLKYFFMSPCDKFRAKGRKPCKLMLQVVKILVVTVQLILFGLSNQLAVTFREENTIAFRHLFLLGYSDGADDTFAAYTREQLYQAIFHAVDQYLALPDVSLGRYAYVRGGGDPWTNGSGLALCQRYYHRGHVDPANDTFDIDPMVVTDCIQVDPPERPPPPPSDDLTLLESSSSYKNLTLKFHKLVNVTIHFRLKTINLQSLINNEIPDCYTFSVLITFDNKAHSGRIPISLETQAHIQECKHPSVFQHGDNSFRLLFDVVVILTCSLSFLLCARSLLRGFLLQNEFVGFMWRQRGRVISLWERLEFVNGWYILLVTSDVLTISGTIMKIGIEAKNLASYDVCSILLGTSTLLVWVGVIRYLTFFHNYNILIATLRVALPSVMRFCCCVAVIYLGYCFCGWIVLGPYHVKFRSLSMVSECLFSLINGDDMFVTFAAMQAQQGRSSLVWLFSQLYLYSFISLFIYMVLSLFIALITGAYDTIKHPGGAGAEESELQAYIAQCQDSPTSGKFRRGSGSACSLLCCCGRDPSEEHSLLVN
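Calcium fluorescence in TRPML1-DL cells induced overnight with Tet: a 110 s read after compound pin addition, then a 110 s antagonist read after challenge with 54-4 at 4 uM final (EC80).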
TRPML1 ag: qHTS for Agonists of the Human Mucolipin Transient Receptor Potential 1 (TRPML1) | TRPML1-expressing cells, Ca2+ dye fluorescence, FDSS; host cell line not named in the record; reference of the full effect not given here | activation, % (concentration not given with the values) | 410,000 compounds, 0.12% hits; in the data active = activation above about 50%; inconclusive = about 30% to 50%; inactive = below about 30%; note: 0% is about no effect; the text of the record puts the active cut at 80%
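In this qHTS format, compounds were pin-transferred onto Ca8-dye-loaded TRPML1-DL cells induced with Tet overnight, and intracellular Ca2+ fluorescence was recorded kinetically for 110 s after a 10 s baseline. A subsequent 4uM final 54-4 (EC80) addition followed by a second 110 s read served as the antagonist phase.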
ClpP mod: qHTS Assay for Activators of ClpP; ATP-dependent Clp protease proteolytic subunit (Bacillus subtilis (strain 168)), P80244; purified B. subtilis ClpP, FRET peptide cleavage, 20 min; Potency, µM (titrated, usually from 57.5 µM), for the others: top-dose activity change, negative = active; 340,000 compounds, 1.9% hits; active = well fitted falling curve with a large enough effect; inconclusive = small, poorly fitted or top-dose-only effect; inactive = no such curve, though single readings can be large or run the other way; note: potency is the fitted concentration of half-maximal effect; the source files actives as falling curves though it sought activators and does not explain the sign; nearly all actives have a fitted effect of over 65% in size; many hits overshoot -100%
Target sequence (P80244 whole entry, looked up): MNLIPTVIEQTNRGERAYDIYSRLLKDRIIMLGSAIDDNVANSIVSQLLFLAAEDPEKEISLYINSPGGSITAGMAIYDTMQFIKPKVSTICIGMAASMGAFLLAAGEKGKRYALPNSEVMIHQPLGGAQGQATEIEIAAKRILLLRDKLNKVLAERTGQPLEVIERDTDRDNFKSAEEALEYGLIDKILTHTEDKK
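Buffer: 100 mM Tris/HCl pH8, 100 mM KCl, 0.05% low protease BSA, 2.5% glycerol, 0.01% Tween-20. ClpP 10 microg/mL final; 20 min RT; delta FRET normalized to ADEP and DMSO controls.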
Menin-MLL FL inh: qHTS Assay for Inhibitors Targeting the Menin-MLL Interaction in MLL Related Leukemias: Competition With Fluorescein Labeled MLL-derived Peptide; Fluorescence polarization, fluorescein-MLL peptide displacement from menin; FP activity change, % at 61.4 µM; 290,000 tested, under 10 active; inconclusive = falling polarisation curve, or a change in total fluorescence; inactive = total fluorescence flat and polarisation flat or rising; no compound was filed as active; the % refers to the polarisation; negative = inhibition;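 note: % of control where 0% means no effect; inhibitors lower the polarisation; unlabelled MLL peptide was the positive control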
gsp antag: qHTS for Antagonists of gsp, the Etiologic Mutation Responsible for Fibrous Dysplasia/McCune-Albright Syndrome: qHTS; Potency, µM (top dose mostly 76.9 µM), for inactives: top-dose activity change, negative = inhibition, usual class: inhibitors; gsp-mutant cells, cAMP HTRF, 30 min; control for the full effect not named in the record; 340,000 compounds, 0.4% hits; active = falling curve of any shape with a large fitted effect; inconclusive = falling curve, mostly with a smaller effect; inactive = flat or rising curve; cell line not stated here;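 note: intracellular cAMP measured with PDE inhibitor Ro 20-1724 present during compound exposure; potency is the fitted concentration of half-maximal effect; % is set by controls: 0 for no effect and ±100 for the full control effect; nearly all actives have a fitted effect of over 65% in size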
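Cells, 2000/well, grown 16–24 h in DMEM 10% FBS with 0.5 mg/ml G418, then compounds plus […] (300 uM addition stock), 30 min at 37C. cAMP read by HTRF (cAMP-d2 and anti-cAMP antibody-K in lysis buffer) after 30 min RT.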
gsp ag: qHTS for Agonist of gsp, the Etiologic Mutation Responsible for Fibrous Dysplasia/McCune-Albright Syndrome: qHTS. gsp mutant cells, cAMP HTRF, 30 min; control for the full effect not named in the record. Potency, µM (series often up to 76.9 µM), without a hit: at the highest dose activation (cAMP increase), actives largely listed as activators. 340,000 compounds, 0.13% hits. AID 624287, 2012; active = well fitted activation curve with a large enough effect; inconclusive = small, poorly fitted or top-dose-only effect, or another doubt; inactive = no such curve, though single readings can be large or run the other way; cell line not stated here;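 note: phosphodiesterase inhibitor Ro 20-1724 added with compounds to block cAMP breakdown; potency is the fitted concentration of half-maximal effect; nearly all actives have a fitted effect of over 60% in size; about a fifth of the inactives were tested at one dose only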
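Cells in DMEM/10% FBS with G418 were pretreated with compounds in DMSO plus […] (300 uM stock) for 30 min at 37C. cAMP was measured by HTRF (cAMP-d2 plus anti-cAMP antibody-K) after 30 min at room temperature.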
Active calls of the source: *; ? = inconclusive; . = not tested or not shown; & = joins results of further samples; [ ] = dose if it differs, or a comment. A portion of the library. The share of hits here may be higher or lower than overall.

SMILES	TRPML1 inh	TRPML1 ag	ClpP mod	Menin-MLL FL inh	gsp antag	gsp ag
O=C(Cn1c2c(c(-c3ccccc3Cl)cc1=O)CCC2)N1CCC2(CC1)OCCO2	8.1	-0.4	?	-2.1	-7.7%	0.7%
CN(C)CCN=Cc1c(O)n(Cc2ccco2)c(=O)[nH]c1=O	-18.1	-0.3	0.1%	3.9	12.7%	-45.2%[inhibitor]
COC(=O)C1=C(c2cccc(OC)c2OC)C[C@@H]2CC[C@H]1N2C(=O)NCCO	-22.0	0.4	0.4%	.	12.5%	11.6%
COc1ccc(C[C@@H]2c3cc(O)c(OC)cc3CCN2C)cc1O	20.7	0.0	-2.9%	2.7	-10.1%	.
CCCCCCC(Cl)(Cn1ccnc1)c1ccccc1 (configuration not stated)	5.2	-1.0	?	.	3.4%	-1.8%[15.4 µM]
COc1ccccc1CCNC1CCCCCC1	10.7	0.7	-2.7%	-0.6	3.2%	-27.6%[15.4 µM]
Cc1nn(Cc2ccccc2)c(Cl)c1C(=O)OCC(=O)N1CCCC1	-5.1	-0.2	1.2%	-1.3	9.6%	-2.5%
CCC1(c2ccc(N)cc2)CCC(=O)NC1=O (configuration not stated)	-1.0	-0.2	0.8%	-1.0&-1.1	-2.3%	.
COC(=O)C1=C(c2ccc(F)cc2F)C[C@@H]2CC[C@H]1N2C(=O)NC1CCCCC1	-0.6	1.0	0.5%	.	3.4%	7.5%
Cc1cccnc1-n1c(-c2ccco2)nc2ccccc2c1=O	36.8	-0.9	-1.0%	6.6	10.6%	?
Nc1c2c(nc3ccccc13)CCN(Cc1ccccc1)C2	1.7	3.2	4.1%	?	-11.2%	20.5%
CC(C)CC(=O)NC(Oc1ccc(Cl)cc1)C(Cl)(Cl)Cl (configuration not stated)	17.7	0.8	0.2%	3.0	-5.6%	7.3%
CCCCn1c(=O)c(C(=O)NCc2ccccc2)c(O)c2ccccc21	.	.	?	-3.3	2.2%	1.3%
COc1ccc2[nH]c(C)c(CCNCc3cc(OC)c(OC)c(OC)c3)c2c1	-18.5	0.9	-1.4%	?	-31.7%	23.8%[15.4 µM]
O=[N+]([O-])c1cccc(C2N3CCCN23)c1 (configuration not stated)	3.0	0.3	1.9%	-0.5	-6.6%	-1.6%
CCN(CC)CCCN=Cc1c(O)n(CCc2ccc(F)cc2)c(=O)[nH]c1=O	8.5	-0.7	-2.5%	-1.4	0.9%	2.3%
CC(C)OC(=O)Nc1ccc(N=C(N)N[N+](=O)[O-])cc1	-1.6	-0.3	.	-1.1	-1.5%	-0.9%
Cc1cccc(N2C(=O)NC(=O)/C(=C\c3cccn3-c3ccc(Cl)cc3)C2=O)c1	48.2	-1.6	-4.4%	-3.1	13.9%	-1.0%
O=C(O)c1cc(S(=O)(=O)Nc2ccccc2C(=O)O)ccc1O	5.5	-0.5	?	0.0	10.3%	8.9%
ClCCN1CCSCC1	-12.5	1.8	.	.	10.4%	-30.4%[inhibitor]
CC(=O)N1CC(=O)Nc2ccc(F)cc2C1c1ccccc1 (configuration not stated)	35.8	0.5	0.6%&-0.2%	-6.9	15.9%	-2.3%
COc1cc(C(=O)N2Cc3ccccc3-n3nncc3C2)cc(OC)c1OC	-5.3	-0.2	0.7%	.	.	-70.9%[inhibitor]
Cc1c(C(=O)N2CCC3(CC2)OCCO3)oc2ccc(S(=O)(=O)N3CCOCC3)cc12	-6.4	0.3	-1.6%	0.7	-2.7%	-12.9%
COc1cc(N2CCOCC2)ccc1/C=C1\C(=O)NC(=O)N(C2CCCCC2)C1=O	15.7	-0.2	?	9.7	-10.8%	20.5%
COc1cc(C(=O)N/N=C/c2ccc(OC(=O)N3CCOCC3)cc2)cc(OC)c1OC	-2.1	0.1	-1.5%	1.6	16.9%	2.1%
CC(=O)c1c(O)cc2c3c1OC(C)(C)C1CCC(C)(CC31)O2 (configuration not stated)	13.1	1.0	-1.7%	.	.	-53.2%[inhibitor]
O=C(CCN1CCOCC1)NCC(=O)Nc1ccc(Br)cc1C(=O)c1ccccc1	-5.0	1.3	-0.5%	0.4	1.6%	-27.4%
COc1cccc(C2(O)CCN(Cc3ccncc3)CC2)c1	14.4	4.8	-3.5%	-5.8	3.8%	-31.6%
CN1CCC(c2c[nH]c3ccccc23)C1 (configuration not stated)	-3.1	0.0	-28.1%	4.4	0.9%	8.0%
CCOC(=O)C1C(=O)NC2(C)CC1c1cc(OC)ccc1O2 (configuration not stated)	-10.2	-0.3	0.5%	-0.1	-0.8%	-4.2%
CC(C)NC[C@H](O)COc1cccc2[nH]ccc12	-4.0	-0.1	-2.9%	?	-0.2%	.
Cc1cc(N(CCCl)CCCl)ccc1/C=N/NC(=O)c1ccco1	13.5	0.1	-0.1%	-2.6	1.3%	-4.9%[15.4 µM]
O=[N+]([O-])c1ccc(N2CCCC2)c2ccncc12	10.1	2.9	-0.9%	11.2	?	5.3%
CC(=O)Nc1nnc(SCC(=O)NCCOc2ccccc2)s1	7.5	-0.6	-3.7%	0.2	2.1%	-70.7%[inhibitor]
CN(C)C(=O)Oc1c(Cl)cc(Cl)c2ccccc12	4.0	7.8	-3.3%	2.5	6.4%	26.4%
C[C@@H]1C[C@@H]([C@H](O)CC2CC(=O)NC(=O)C2)C(=O)[C@@H](C)C1	24.0	0.0	-2.3%	-12.1	4.9%	.
COc1ccc(NC(=S)NC(NC(=O)CF)C(Cl)(Cl)Cl)c([N+](=O)[O-])c1 (configuration not stated)	11.7	-0.1	?	-0.3	4.7%	-11.7%
COc1ccc2c(c1)c(CCN)c(C)n2Cc1ccccc1	-1.6	-0.4	.	3.6	-1.8%	0.0%[15.4 µM]
COc1cc2c(cc1OC)-c1c3c(cc4c1[C@@H](C2)N(C)CC4)OCO3	11.7	0.5	4.1%	1.9	-2.2%	-3.3%
Cc1[nH]c2ccc(OC(F)(F)F)cc2c1CCNCc1ccc(Cl)cc1	-2.3	0.4	.	0.9	9.8%	-16.4%[15.4 µM]
CCOP(=O)(OCC)Oc1cc(C)c(N(C)C)c(C)c1	3.2	0.9	.	2.6	-2.7%	14.9%[15.4 µM]
Clc1ccc2c(c1)C(c1ccccc1Cl)=NCc1nncn1-2	-19.6	-0.2	-1.0%	-0.7	-12.7%	-32.7%[inhibitor]
COc1cc(C(C)=O)ccc1OCc1cc(C(=O)N(C)CCC2CCCCO2)no1 (configuration not stated)	-6.3	0.4	-5.1%	-0.8	1.2%	-22.1%
Cc1cccc(N/N=C/c2c(O)[nH]c(=S)[nH]c2=O)c1	11.7	0.0	2.2%	.	-5.2%	.
O=C(c1ccc(Br)cc1)C12CN3CN(CN(C3)C1)C2	16.1	0.0	-0.7%	0.2	-0.2%	1.6%
COC(=O)NC(=S)Nc1ccccc1NC(=S)NC(=O)OC	0.9	0.3	-3.7%	0.1	1.5%	.
COc1cccc(CNCCc2cccc(F)c2)c1OC	6.0	-0.6	0.2%	2.1	1.7%	?
O=C(NCc1ccc(C(=O)N2CCC3(CC2)OCCO3)cc1)c1cccc(Br)c1	13.4	1.3	-0.7%	-0.1	-16.1%	37.8%
O=C(c1csc2c1CCCCC2)N1CCC2(CC1)OCCO2	14.1	-0.6	-0.4%	-2.0	-6.5%	-6.9%
CC1(C)C(C(=O)N2CCN(C(=O)c3ccccc3)CC2)C1(C)C	4.5	1.3	.	-3.9	-3.0%	24.1%
Cc1ccc(CN2CCCC(C(=O)c3cccc(C(F)(F)F)c3)C2)o1 (configuration not stated)	-10.4	-0.5	.	-0.1	4.7%	9.2%[15.4 µM]
COc1ccccc1-n1c(/C=C/c2ccccn2)nc2ccccc2c1=O	-18.7	-0.2	0.6%	5.6	-4.2%	14.8%[15.4 µM]
Cc1cc(C(=O)CS(=O)c2ccc(F)cc2)cc(C)c1OC(=O)N(C)C (configuration not stated)	-23.1	0.5	.	-3.9	-3.2%	-103.0%[inhibitor]
COc1cc(N2C(=O)CC(=O)NC2=O)cc(OC)c1OC	-10.8	0.1	-0.6%	?	-4.9%	2.3%[15.4 µM]
O=c1c2ccccc2nc(/C=C/c2ccc([N+](=O)[O-])o2)n1-c1ccc(O)cc1	21.2	0.2	.	?	-11.9%	?
Cc1ccc([N+](=O)[O-])cc1	1.2	0.1	-1.3%	.	1.1%	.
C[C@]12CCC3C(C[C@@H](O)[C@H]4C[C@@H](O)CC[C@]34C)C1CC[C@@H]2O (some centres not stated)	3.0	-0.4	.	.	7.8%	?
Clc1cc(I)cc(Cl)c1NC1=NCCN1	36.0	-0.8	1.5%	-1.7	0.5%	.
COc1ccc(OC(=O)N(C)C[C@@H]2OCc3cnnn3CCCC(=O)N([C@H](C)CO)C[C@@H]2C)cc1	-2.1	-0.4	-1.6%	.	.	12.0%
O=C(O)c1ccc(/C=C/c2nc3ccccc3c(=O)n2-c2ccc(Br)cc2)cc1	-10.2	2.1	.	0.3	14.1µM*	-31.5%[inhibitor]
(cont.)
SMILES	TRPML1 inh	TRPML1 ag	ClpP mod	Menin-MLL FL inh	gsp antag	gsp ag
CC1CCC2[C@@H](C)C(=O)OC3O[C@]4(C)CCC1C32OO4 (some centres not stated)	7.6	-0.2	1.8%	.	-8.4%	-1.4%[15.4 µM]
C=C1C2C[C@@]3([C@@H]1O)[C@@H](C[C@@H]2O)[C@@]12C4[C@@H]3C[C@@H]1[C@@](C)(CC[C@@H]2O)CN4CC	-4.6	-0.3	-0.3%	.	5.5%	.
O=C(CN1C(=O)CCSc2ccccc21)N1CCC2(CC1)OCCO2	-13.7	0.5	0.1%	0.1	15.7%	8.7%
Cc1cc(C)c(Cn2c(C(=O)O)c(C=O)c3ccccc32)c(C)c1	1.3	8.5	-1.7%	-0.3	-7.4%	?
CN1C(=O)N(C)C(=O)C(CCc2ccncc2)(Cc2ccc3c(c2)OCO3)C1=O	19.2	-0.5	0.2%	-1.7	-7.5%	-2.2%
O=[N+]([O-])c1cc(S(=O)(=O)c2ccc(O)c([N+](=O)[O-])c2)ccc1O	14.8	-0.1	0.7%	6.5	-10.6%	-16.0%
CCOC(=O)C(C)Oc1cc(C)cc2oc(=O)c3c(c12)CCCC3 (configuration not stated)	60.4	3.5	15.8µM*	3.5	1.3%	8.0%
CCC(C(=O)Nc1ccccc1F)N1C(=O)CN=C(c2ccccc2)c2ccccc21 (configuration not stated)	2.8	4.8	0.0%	.	.	.
Cc1ccccc1N1C(=O)NC(=O)/C(=C\c2ccc3c(c2)CCCN3Cc2ccccc2)C1=O	14.1	1.3	6.9%	?	-0.1%	-1.2%

Screening results as filed in PubChem BioAssay.
